Screens from PubChem.
PINK1 modulator – modulators of PINK1 expression. PINK1 immunofluorescence, high-content cytometry, 24 h. Potency, µM (series often up to 76.6 µM), inactives show top-dose activation (PINK1 increase), hits mostly activators. AID 624263. 410,000 compounds, 0.2% hits; active = well fitted activation curve with a large enough effect; inconclusive = small, poorly fitted or top-dose-only effect; inactive = flat fitted curve, though single readings scatter; cell line not stated here;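 further: potency means the concentration at half of the fitted maximal effect; % of control where 0% means no effect; nearly all actives have a fitted effect of over 65% in size; a mitochondrial uncoupler was the plate control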
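Compound titrations (5 concentrations, 24 h) on a stable cell line; DMSO and CCCP controls. Endpoint: fixed-cell PINK1 immunofluorescence with mitochondrial, cell and nuclear markers, scanned by microplate cytometer.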
D2 agonist – human D2 receptor agonism in beta-arrestin assay | P14416 | DiscoveRx PathHunter D2 beta-arrestin, luminescence, 90 min; 100% = 57 uM dopamine signal | activation, % (test concentration not listed) | 360,000 compounds, 0.084% hits | AID 624465; in the data active = activation above about 40%; inconclusive = about 15% to 40%; inactive = below about 15%; further: compound concentration not given in the record; the text of the record calls up to 30% inactive
Target sequence (P14416 whole entry, looked up): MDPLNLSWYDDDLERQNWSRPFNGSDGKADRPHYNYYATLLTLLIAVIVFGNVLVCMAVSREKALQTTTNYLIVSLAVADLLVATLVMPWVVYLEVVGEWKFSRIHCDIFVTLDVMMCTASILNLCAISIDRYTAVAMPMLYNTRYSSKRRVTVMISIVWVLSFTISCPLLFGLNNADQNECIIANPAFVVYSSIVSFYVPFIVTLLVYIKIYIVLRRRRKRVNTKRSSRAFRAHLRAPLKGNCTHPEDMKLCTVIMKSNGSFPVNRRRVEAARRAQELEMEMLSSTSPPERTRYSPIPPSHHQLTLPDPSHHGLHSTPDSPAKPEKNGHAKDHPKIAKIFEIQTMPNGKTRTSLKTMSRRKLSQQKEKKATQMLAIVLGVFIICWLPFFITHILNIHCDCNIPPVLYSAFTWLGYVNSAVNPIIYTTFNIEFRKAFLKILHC
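Agonist mode: compounds alone added to overnight-plated D2 PathHunter cells for 90 min at 37 C, with 57 uM final dopamine (EC100) defining full response. Beta-arrestin recruitment detected by chemiluminescent reagent, read after 1 h at ambient temperature.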
D2 PAM – human D2 receptor positive allosteric modulation; P14416; DiscoveRx D2 beta-arrestin cells, luminescence, 90 min; 100% = 57 uM dopamine signal; potentiation, % (no concentration beside the values); 360,000 compounds, 0.23% hits; AID 624464; active = potentiation of 50% or more; inconclusive = 30% to 50%; inactive = 30% or less;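 further: compound concentration not given in the record; tested on top of an EC20 dose of dopamine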
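PathHunter beta-arrestin assay in DiscoveRx D2 cells. Compounds were added with an EC20 of dopamine (50 nM final) for 90 min at 37 deg C. Luminescence was read 1 h after detection reagent, with 57 uM dopamine as the EC100 control.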
TRPML1 agonist – activates the human TRPML1 channel. Q9GZU1. TRPML1-expressing cells, Ca2+ dye fluorescence, FDSS; host cell line not named in the record; reference of the full effect not given here. activation, % (no concentration beside the values). 410,000 compounds, 0.12% hits; in the data active = activation above about 50%; inconclusive = about 30% to 50%; inactive = below about 30%; further: 0% is about no effect; the text of the record puts the active cut at 80%
Target sequence (Q9GZU1 whole entry, looked up): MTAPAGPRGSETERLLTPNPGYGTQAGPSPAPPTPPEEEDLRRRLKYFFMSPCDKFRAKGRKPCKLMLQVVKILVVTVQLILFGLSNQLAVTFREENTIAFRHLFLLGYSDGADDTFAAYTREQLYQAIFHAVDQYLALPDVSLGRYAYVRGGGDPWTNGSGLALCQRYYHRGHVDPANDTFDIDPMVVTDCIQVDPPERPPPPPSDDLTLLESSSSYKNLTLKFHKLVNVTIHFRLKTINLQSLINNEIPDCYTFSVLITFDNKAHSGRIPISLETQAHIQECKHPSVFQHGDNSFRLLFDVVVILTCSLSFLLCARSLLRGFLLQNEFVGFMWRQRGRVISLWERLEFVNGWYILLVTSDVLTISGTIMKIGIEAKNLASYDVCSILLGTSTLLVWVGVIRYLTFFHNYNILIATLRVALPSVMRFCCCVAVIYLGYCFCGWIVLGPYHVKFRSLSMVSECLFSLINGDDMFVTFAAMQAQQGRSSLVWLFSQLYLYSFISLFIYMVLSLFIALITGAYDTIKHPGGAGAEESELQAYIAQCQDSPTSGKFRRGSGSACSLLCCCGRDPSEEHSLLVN
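Calcium fluorescence on an FDSS kinetic reader gave the read-out. Tet-induced TRPML1-DL cells were plated overnight, dye-loaded (Ca8 with quencher, 45-90 min, room temperature, dark), then read 110 s after compound addition, and again 110 s after 4uM final 54-4 (EC80).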
Six1-Eya2 inh – blocks human Six1 binding to Eya2 | Q15475+O00167 | 360,000 compounds, 0.56% hits | AlphaScreen GST-Six1/His-Eya2 binding, biochemical; hits give low values; control for the full effect not named in the record | activity change, % (test concentration not listed); in the data active = activity change below about -65%; inconclusive = about -30% to -65%; inactive = above about -30%; further: on the % scale 0 is the no-effect control and ±100 the full control effect
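Homogeneous AlphaScreen proximity assay pairing GST-Six1 with His-tagged Eya2 (added as 5X mix: 250 nM and 500 nM) in 50 mM Tris pH 8.0, 300 mM NaCl, 1 mM TCEP. Glutathione donor and nickel acceptor beads; 1 h, 37 °C, dark.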
CtBP-E1A blk – blocks the CtBP interaction with E1A; AlphaScreen GST-E1A/His-CtBP binding, 1536-well; hits give low values; control for the full effect not named in the record; activity change, % (no concentration beside the values); 340,000 compounds, 0.49% hits; AID 651724; in the data active means activity change below about -65%; inconclusive means about -30% to -65%; inactive means above about -30%; further: on the % scale 0 is the no-effect control and ±100 the full control effect
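In 5 uL wells, 23 nL compound meets equimolar GST-E1A and His-CtBP (5X stock 125 nM each) for 2 h, 37 °C. Beads (5X, 50 ug/mL) then 1 h, 37 °C, dark.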
* hit, by the source's call; ? = inconclusive; / = not tested or not shown; & = joins results of further samples; [ ] = dose if it differs, or a comment.

smiles,PINK1 modulator,D2 agonist,D2 PAM,TRPML1 agonist,Six1-Eya2 inh,CtBP-E1A blk
Cc1ccc(S(=O)(=O)N2CCN(c3ncnc4scc(-c5ccccc5)c34)CC2)cc1,1.0%,0.4,8.6,7.6,7.1,-2.4
O=c1c(Cl)c(Cl)cnn1-c1ccccc1,-1.2%,-1.7,-4.3,1.8,-4.5,6.4
COc1ccccc1-n1cnnc1SCC(=O)Nc1cccc(S(N)(=O)=O)c1,-1.3%,-1.0,2.7,-0.9,-5.0,0.9
Cc1ccc(NC(=O)c2ccc([N+](=O)[O-])o2)cc1C,-2.5%,7.6,8.7,0.2,-6.8,-7.0
CCc1nc2sc3ccccc3c(=O)c2c(=O)n1Cc1ccco1,1.2%,-0.4,-17.8,2.0,?,-28.9
CCOc1ccc(NC(=O)CNC(=O)Cc2ccccc2)cc1,-1.2%,0.3,0.8,1.2,18.2,0.0
COc1ccccc1N(CC(=O)NCc1ccccc1)C(=O)CCC(=O)Nc1ccccn1,-0.8%,-2.2,-13.1,0.1,1.3,-0.2
Cc1ccc(C(=O)Nc2ncnc3sc4c(c23)CCCCC4)cc1,1.9%,-3.2,-19.5,3.2,-2.9,1.9
COc1cc(C=C(C#N)C(=O)c2ccccc2)cc(OC)c1OC,-0.8%,1.5,-0.8,-0.7,2.1,6.5
CS(=O)(=O)N1CCN(c2ccc([N+](=O)[O-])c(N3CCOCC3)c2)CC1,-1.0%,-0.3,-1.7,-1.2,-5.8,1.1
Cc1ccc(-n2c(CSc3nc(C)cc(C)n3)nnc2SCC(=O)NCc2ccco2)cc1,-1.9%,-2.9,-2.5,0.9,-1.3,-0.3
COc1ccc(Cl)cc1NC(=O)NC1CCCCC1,0.7%,-2.3,-19.0,1.7,11.4,0.8
O=C(N/N=C/c1ccc(OCC2COCCO2)cc1)c1ccc(Br)cc1 (stereo not drawn),6.7%,2.0,-5.2,-0.1,-0.9,-24.9
CCOC(=O)c1c(NC(=O)COC(=O)c2ccc(O)cc2)sc(C(=O)N(C)C)c1C,-0.5%,-0.4,-4.7,1.9,?,-4.0
O=C(N1CCN(c2cccc(Cl)c2)CC1)C1(S(=O)(=O)c2ccc(Cl)cc2)CC1,-0.1%,-2.1,-16.6,2.5,-4.5,-4.3
COc1ccc(NC(=S)N2c3ccccc3CC2C)cc1OC (stereo not drawn),-1.1%,2.5,-20.4,1.7,-1.4,4.3
Cc1cc(Nc2ccccc2)c2c([N+](=O)[O-])ccc(C)c2n1,0.2%,-1.8,-6.9,1.0,-6.0,-8.5
Nc1ncnc2c1ncn2C1CCC(CO)C(O)C1 (stereo not drawn),20.2%[38.3 µM],-1.0,-10.3,0.7,0.9,0.0
CCCOC1CCCN(C(=O)c2ccc(OC3CCN(C(=O)COC)CC3)cc2)C1 (stereo not drawn),-1.0%,-2.0,-5.8,0.4,20.1,-6.3
COc1ccc(CNC(=O)c2ccc(C(C)C)cc2)cc1,-0.2%,-5.6,-10.5,1.4,3.7,-3.4
CC1(C)CC(=O)C(C(C2=C(O)CC(C)(C)CC2=O)c2ccc(Br)s2)C(=O)C1 (stereo not drawn),-0.9%,-3.0,0.8,2.3,0.1,-11.0
O=C(CCNc1ccc(F)cc1)c1cc2ccccc2o1,1.7%,0.6,8.5,0.6,-14.1,2.5
Cn1c(N)c(C(=O)COC(=O)/C=C/c2ccccc2F)c(=O)n(C)c1=O,2.2%,0.6,-1.9,1.1,-20.4,?
Cc1cc(C)c(OCCN2CC(C)OC(C)C2)c(Br)c1 (stereo not drawn),3.3%,-0.5,-4.2,-0.3,-0.1,-17.6
CNS(=O)(=O)c1ccc(CNC[C@H]2O[C@@H](n3cnc(C(N)=O)n3)[C@H](O)[C@@H]2O)cc1,-0.4%,-1.3,/,-0.8,1.2,8.0
CCCCN(CC)CCCNC(=S)Nc1ccc2nc3n(c(=O)c2c1)CCCCC3,1.4%,9.9,-2.0,0.2,-0.9,-5.6
Cc1ccc(C(=O)C2=C(O)C(=O)N(CC3CCCO3)C2c2ccccc2F)o1 (stereo not drawn),-0.7%,-3.6,-7.3,1.1,7.0,-3.2
NNC(=O)Cn1c(-c2ccccc2)cc(=O)n2ncnc12,0.3%,-5.2,-8.9,0.1,-0.9,-1.1
O=C(Nc1ncccc1O)c1ccc(S(=O)(=O)NCc2ccco2)cc1,-0.7%,-7.2,-8.5,-0.3,0.5,-11.2
O=[N+]([O-])c1ccc(-n2nnnc2CN2CCCCC2)cc1,-1.5%,0.0,5.4,-0.6,-0.9,3.0
O=C(COC(=O)CCc1nc2ccccc2c(=O)[nH]1)NC(c1ccccc1)c1ccccc1,4.6%,-0.6,-9.6,1.3,-0.9,-0.1
C[C@@H]1CN([C@@H](C)CO)C(=O)CCCn2nncc2CO[C@@H]1CN(C)S(=O)(=O)c1ccc(Oc2ccccc2)cc1,0.9%,-7.6,3.2,-0.1,-1.7,0.2
CCOC(=O)CCSc1nnc(-c2cccnc2)n1-c1ccccc1OC,-1.2%,-1.7,-8.7,0.0,4.2,1.2
NS(=O)(=O)c1ccc(NC2=CC(c3ccc([N+](=O)[O-])cc3)N(c3ccc(S(N)(=O)=O)cc3)C2=O)cc1 (stereo not drawn),0.3%,-10.8,-25.9,1.0,0.9,-2.0
CCN(CC(=O)Nc1cc(Cl)ccc1C)C(=O)c1ccc(=O)n(Cc2ccccc2)n1,0.4%,-12.4,-51.4,0.9,22.0,0.0
COc1ccc(NC2CCCN(C(=O)c3cc(CC(C)C)nc(N)n3)C2)cc1 (stereo not drawn),0.5%,1.0,-6.7,-0.9,-5.2,1.0
O=C(NCC1CCCO1)C1CCN(S(=O)(=O)c2cccnc2)CC1 (stereo not drawn),2.9%,-0.7,3.4,-0.2,7.6,-1.2
CCC(C(=O)NC1CCCC1)N(C(=O)Cn1nnc(-c2cccs2)n1)c1cnc2ccccc2c1 (stereo not drawn),14.4%,-3.8,-17.4,4.5,18.2,0.0
COc1cccc(CN(C)S(=O)(=O)c2ccc3c(c2)OCCO3)c1,-0.7%,-2.6,3.5,-0.9,12.7,21.8
NC(COCc1ccccc1)c1csc(Nc2cc(Oc3ccccc3)ncn2)n1 (stereo not drawn),4.9%,5.1,6.1,-0.8,-24.1,?
CN(CC(=O)Nc1ccc(F)cc1)C(=O)CSc1nnc(Cc2ccccc2)o1,-0.8%,-0.1,2.3,1.2,-0.4,-2.5
O=C(O)/C=C\C(=O)Nc1ccc(OCc2ccccc2)cc1,0.1%,-4.1,-14.8,-0.3,-1.1,-15.7
CCN1CCN(c2cc(=O)n(Cc3ccc(F)cc3)c(=O)[nH]2)CC1,0.9%,-8.5,-2.0,0.1,2.2,/
COC(=O)Nc1snnc1C,0.0%,-2.2,-4.1,0.3,8.5,3.5
Cc1ccccc1CC1(CO)CCCN(C(=O)c2ccc(F)cc2)C1 (stereo not drawn),-0.1%,-0.2,-2.3,2.4,-5.8,3.4
COCCNC(=O)Cn1cnc2sc(C)c(S(=O)(=O)N3CCN(c4ccccc4OC)CC3)c2c1=O,4.3%&-0.2%,6.4,-4.9,0.3&-0.1,-4.6,-4.2
COc1ccc(NC(=O)c2ccc(NCCCN3CCOCC3)c([N+](=O)[O-])c2)cc1,8.7%,-11.5,-32.5,-2.0,-18.3,-14.4
COC(C(=O)Nc1ccnn1C1CCN(C(=O)c2cccc(F)c2)CC1)c1ccccc1 (stereo not drawn),1.5%,0.6,-5.9,-1.2,5.1,-9.2
Cc1cc(C)n(-c2cc(C(C)(C)C)nc3c(-c4ccccc4)cnn23)n1,?,-4.2,-5.3,?,14.9,9.5
COc1ccc(NC(=O)/C=C/c2cc(OC)c(OC)c(OC)c2)cn1,-0.5%,-4.0,-2.3,-0.2,-0.3,3.4
CN(C)C1=NC[C@H](Cc2ccccc2)N1CCc1ccc(F)cc1,-1.1%,-2.9,-16.7,0.3,13.7,-20.2
Cc1ccc(Cn2nnnc2CN2CCC(NC(=O)C(C)(C)C)CC2)cc1,0.1%,1.1,-1.3,-0.1,1.0,31.4
CN(CCc1ccccc1)C(=O)c1ccc(NC(=O)Cc2cccc(NC(=O)C3CCN(C(=O)C4CC4)CC3)c2)cc1,0.0%,-2.9,-8.8,0.1,-0.2,-2.0
N#Cc1c(-c2cccc(Br)c2)cc(-c2cccnc2)nc1N,?,10.4,-12.1,3.1,5.2,5.3
Cc1cccc(N2CCN(C(=O)CSc3ccsc3[N+](=O)[O-])CC2C)c1 (stereo not drawn),0.4%,-3.8,-3.4,-0.6,-24.0,-15.8
CS(=O)(=O)Nc1ccc(C(=O)NCCC2=CCCCC2)cc1,0.2%,-0.9,-29.2,-0.3,4.5,7.7
CCNc1[nH]c(=O)n(C)c(=O)c1N=O,0.5%,-0.9,-0.3,-0.5,-1.1,-0.5
CCOC(=O)c1c(NC(=O)CSc2nnc(-c3cccnc3)o2)sc(C)c1C,3.0%,-1.2,7.3,2.1,1.8,11.7
COc1ccccc1Nc1ncc(-c2cccs2)s1,3.1%,-6.2,9.5,-0.9,-12.8,-18.0
O=C(CN(C(=O)c1csnn1)c1ccccc1F)NCc1ccc2c(c1)OCO2,0.1%,-3.2,-12.8,-0.3,5.4,-5.3

Other compounds:
smiles,PINK1 modulator,D2 agonist,D2 PAM,TRPML1 agonist,Six1-Eya2 inh,CtBP-E1A blk
Cc1cc(-c2ccc(N3C(=O)CCC3=O)c(C)c2)ccc1N1C(=O)CCC1=O,0.8%,-4.3,-16.7,-0.8,-3.4,-4.0
CCOc1ccc(CCNC(=O)CSc2nnnn2C)cc1OCC,1.3%,0.1,-2.1,-0.3,6.2,5.6
CCCCc1ccc(CC(=O)Nc2cc(S(=O)(=O)N3CCOCC3)ccc2O)cc1,?,-3.3,-3.5,-0.8,-1.5,/
CCc1ccc(OCC(=O)O/N=C(\N)c2ccncc2)cc1,3.3%,1.2,-17.8,3.2,13.5,21.9
CC1CCCCC1Nc1ncnc2sccc12 (stereo not drawn),-1.5%,6.1,-6.0,0.7,-3.7,-8.9

In a second layout: results already given.
Order of values – PINK1 modulator | D2 agonist | D2 PAM | TRPML1 agonist | Six1-Eya2 inh | CtBP-E1A blk
- Cc1cc(C)c(OCCN2CC(C)OC(C)C2)c(Br)c1 (stereo not drawn)
→ 3.3% | -0.5 | -4.2 | -0.3 | -0.1 | -17.6
- COc1ccc(Cl)cc1NC(=O)NC1CCCCC1
→ 0.7% | -2.3 | -19.0 | 1.7 | 11.4 | 0.8
- Cc1ccc(-n2c(CSc3nc(C)cc(C)n3)nnc2SCC(=O)NCc2ccco2)cc1
→ -1.9% | -2.9 | -2.5 | 0.9 | -1.3 | -0.3
- COC(=O)Nc1snnc1C
→ 0.0% | -2.2 | -4.1 | 0.3 | 8.5 | 3.5
